Bioassay records as filed in PubChem.
NPYLR7 ag: mosquito NPYLR7 agonism; HEK293T NPYLR7/Galpha15, GCaMP6s calcium fluorescence; activation, % at 10 µM; hit rate 0.15% among 270,000; AID 1259423; in the data active = activation above about 40%;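 note: 0% = vehicle and 100% = reference agonist at the receptor; some compounds past the cut are filed as inactive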
NPYLR7 ag max-min: second read-out of NPYLR7 ag, no call of its own (marks repeat the call); activation, %; measured here: Max-Min RFU normalised activation; some inactives read as strong as hits;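 span of the calcium signal over five minutes; 0% = vehicle and 100% = native peptide agonist; compound fluorescence can raise it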
Active calls of the source: *; & = joins results of further samples.

SMILES	NPYLR7 ag	NPYLR7 ag max-min
O=C(Cc1ccccc1)NC(NC(=S)Nc1ccccc1O)C(Cl)(Cl)Cl (stereo not drawn)	-9	-12
CC(C)(O)C#Cc1ccc(C(=O)NCCn2nnc3ccccc32)o1	14	10
CCc1oc2ccccc2c1C(=O)c1cc(Br)c(O)c(Br)c1	-6&-2	-12&-4
O=C(CC1C=CCC1)NCc1ccccc1CS(=O)(=O)N1CCOCC1 (stereo not drawn)	-3	-6
CC(C(=O)N1CC(c2cccnc2)C1)n1cnc2ccccc21 (stereo not drawn)	12	7
C=CCN(Cc1nccn1Cc1ccccc1Cl)C(=O)CCc1ccccc1	26	34
COc1ccccc1C(=O)Nc1cc(-c2nc3cc(Cl)ccc3o2)ccc1C	-23	-22
CC(=O)NC(C(=O)Nc1cc(-c2c(F)cccc2F)[nH]n1)C(C)C (stereo not drawn)	20	11
Cc1ccc(-n2c(-c3ccc(Cl)cc3)cc(C(=O)N3CCc4ccccc4C3)c2C)cc1	-5	-5
Cn1c(SCC(=O)NC2CCCC2)nnc1-c1ccco1	4	2
O=C(c1c(O)cccc1O)N1CC(Oc2ccccc2F)C1	-5	-8
CCCOc1ccc(-c2cc(C(=O)N3CCc4ccccc43)c3ccccc3n2)cc1	-5	-9
O=C(c1cc2ccccc2o1)c1nc2c(n1O)CCCC2	5	2
Cc1nc(CSc2ccc(C(=O)NNC(=O)c3ccco3)cc2)cs1	0	-1
Clc1cccc(CN2CCN(Cc3ccnn3-c3ccccc3)CC2)c1	9	6
O=C(c1ccccc1Cl)N1CCSC1c1ccccc1OCc1ccccc1 (stereo not drawn)	18	33
COc1cc2[nH]c(=O)[nH]c2cc1-n1cnnc1	0	-5
CSC1CCCC1N(C)Cc1cc(=O)n2[nH]ccc2n1 (stereo not drawn)	0&-7	-2&-8
CC(=O)NCC1CN(c2ccc(C)cc2)C(=O)O1 (stereo not drawn)	3	6
COc1cccc(C2C3=C(CC(C)(C)CC3=O)OC(=N)C2C#N)c1OC (stereo not drawn)	7	0
CC(C)CCn1c(=O)[nH]c2cc(Cl)ccc2c1=O	-5	-6
Cc1nc(CNC2CCN(Cc3ccccc3)CC2)nc2c1CCCC2	26	13
CC(=O)c1[nH]c(C)c(C(=O)N2CC[C@@H](c3ccc4c(c3)OCO4)[C@H](O)C2)c1C	15	9
CCOC(=O)C1=C(C)Nc2ncnn2C1c1ccc(C)o1 (stereo not drawn)	2	0
CCCCCNc1nc2c(-c3ccccc3)nnn2c2ccccc12	-4	-6
COC(=O)c1ccc(COc2ccccc2C=C2SC(=S)NC2=O)cc1	-8	-11
CN(C)Cn1c(=S)oc2cc(S(=O)(=O)Nc3ccccc3Cl)ccc21	2	1
Cc1cc(C(=O)Nc2ccc(F)cc2)nc2cc(-c3ccccc3)nn12	3	10
CCc1[nH]c2c(CNC(=O)CCn3c(C)cccc3=O)cc(F)cc2c1C	5	2
O=C(c1cccnc1Nc1cccc(Cl)c1)N1CCC(n2c(=O)[nH]c3ccccc32)CC1	-9	-10
Cc1ccnc(Nc2ccc(NCCNS(=O)(=O)Cc3ccccc3)nn2)c1	6	-1
CN(C)c1nccnc1N1CCC(N2CCCC(C(=O)N3CCCC3)C2)CC1 (stereo not drawn)	27	21
Cc1c(C(=O)NC2(c3ccccc3)CCC2)oc2c1C(=O)CCC2	-1	-2
Cc1ccc(CNC(=O)CC2Sc3ccc(Cl)cc3NC2=O)cc1F (stereo not drawn)	11	9
CCS(=O)(=O)N1CCN(C(=O)CN2CCc3sccc3C2c2cccc(F)c2)CC1 (stereo not drawn)	3	-3
O=C(c1ccccc1)N1CCc2nc(Cc3cccc(C(F)(F)F)c3)[nH]c(=O)c2C1	14	10
Cc1cc(C)cc(NC(=O)CSc2nc3c(c(=O)[nH]2)CN(C(C)C)CC3)c1	-11	-15
COc1ccccc1CSc1nnc(-c2ccncc2)n1-c1cccc(C(F)(F)F)c1	-7	-7
Cc1cccc(S(=O)(=O)N2CCN(C(=O)c3cccs3)CC2)c1	22	13
Cc1nn(CC(=O)NC(C)(C)C)c(C)c1S(=O)(=O)NC(C)(C)C	-3	5
CC12CCC(C(=O)O)(CC1=O)C2(C)C (stereo not drawn)	5	2
Brc1cc2c(cc1CSc1nnc(-c3c[nH]c4ccccc34)o1)OCCO2	12	12
Cc1cc(C(=O)N2[C@@H](c3ccco3)[C@@H](C(=O)O)C[C@]23CCCCN(CCO)C3=O)c(C)o1	6	17
CCOC(=O)CC1=C(C(=O)OCC)C(c2c(F)cccc2Cl)C(C#N)C(=N)O1 (stereo not drawn)	-5	-8
COC(=O)N=C(C#N)C(Cl)Cl	4	1
Cc1cc(C)c(C(=O)N2CC3CCCCC3C2)c(=O)[nH]1 (stereo not drawn)	7	2
O=S(=O)(Nc1ccc(Nc2ccc(-n3cccn3)nn2)cc1)c1ccccc1	-1	-10
CC(NC(=O)c1csc(COc2cc(Cl)ccc2Cl)n1)c1ccccc1 (stereo not drawn)	21	15
O=C1c2ccccc2-c2ccc(Br)cc21	-8	-7
COc1ccc(C)cc1NC(=O)N1CCc2cc(OC)c(OC)cc2C1c1ccc(OC)c(OC)c1 (stereo not drawn)	15	6
CC1CC(c2ccsc2)CN1C(=O)CNC(=O)c1ccccc1 (stereo not drawn)	1	0
CCc1nc(C)ncc1C(=O)N1CCCC(c2cc(C(N)=O)n[nH]2)C1 (stereo not drawn)	-2	9
CC(=NNC(=O)c1cccc(S(=O)(=O)N2CCOCC2)c1)c1cc(Cl)ccc1Cl	0	-4
CCCCN(CCc1nc(-c2ccc([N+](=O)[O-])cc2)no1)CC(O)COC(=O)CCC (stereo not drawn)	4	5
CCc1nc(CC(=O)NCC(C)(C)c2ccccc2OC)cs1	2	1
CN(CC(F)F)C(=O)NCc1cccc(NC(=O)c2ccncc2)c1	11	4
O=C(CN1C(=O)CC(N2C(=O)C(=CC=Cc3ccccc3)SC2=S)C1=O)Nc1ccc(O)cc1 (stereo not drawn)	3	2
Cc1noc(-c2ccccc2Cl)c1C(=O)NCc1cccc(F)c1F	25	17
CCCCC(O)CN(Cc1c(C)nn(-c2cccc(Cl)c2)c1Oc1ccc(OC)cc1)CC1CC1 (stereo not drawn)	11	10
O=C(C1COc2ccc(Cl)cc2C1)N1CCN(S(=O)(=O)c2cccc(C(F)(F)F)c2)CC1 (stereo not drawn)	3	5

(list continues)
SMILES	NPYLR7 ag	NPYLR7 ag max-min
Clc1cccc(Nc2nc3ccccc3n3cnnc23)c1	-1	-3
COc1ccc(Cl)cc1NC(=O)CN(C)C(C)C(=O)NCC1CCCCC1 (stereo not drawn)	15	10
CCC(C(=O)NCc1ccccc1)N(C)Cc1ccc(C)o1 (stereo not drawn)	-1	-2
CC(NC(=O)c1cc(-c2ccncc2)nc2ccccc12)c1ncn[nH]1 (stereo not drawn)	16	6
CC1=C(C(=O)N2C(C)CCCC2C)C2(CCC(C)CC2)OC1=O (stereo not drawn)	4	2
CCc1cc(Cn2ccnc2-c2ccccc2SC)on1	31	17
O=C1NC2(CCN(C(=O)c3cccc(Br)c3)CC2)Nc2ccc(Cl)cc21	0	5
O=C(NCC1(N2CCOCC2)CCCCC1)c1cc(COc2ccc3ncccc3c2)on1	18	2
Cc1cccc(S(=O)(=O)N2CCN(C(=O)C3CC4C=CC3C4)CC2)c1 (stereo not drawn)	-6	4
C=C(Br)Cn1c(C2CC(=O)N(c3cccc(C)c3)C2)nc2ccccc21 (stereo not drawn)	-1	7
O=C(O)CC1CCCCN1S(=O)(=O)c1ccccc1 (stereo not drawn)	-4	1
CN1CCC(CNC(=O)c2ccc3c4c([nH]c3c2)CCCC4)C1 (stereo not drawn)	8	8
COc1ccccc1N=Nc1c(-c2ccc([N+](=O)[O-])cc2)[nH]n(-c2nc(-c3ccccc3)cs2)c1=O	-7	-11
CN(Cc1ccc(Cl)s1)c1ccc(S(N)(=O)=O)cn1	1	1
O=C(CCCl)Nc1cccc(S(=O)(=O)N2CCCC2)c1	-1	13
COc1cc(N2C(=O)C3C4C=CC(C4)C3C2=O)cc(OC)c1OC (stereo not drawn)	-9	-12
CCOC(=O)CCC(=O)N(CCOC)CC(=O)N1CC(=O)N(c2cccc(C)c2)C1	0	1
CC(C)C(=O)N1CCC(NC(=O)c2c3c(nc4ccccc24)CCC3)CC1	6	2
C=CCCC(=O)N[C@H]1CC[C@@H]2SC[C@@H](C(=O)Nc3ccccc3Nc3ccccc3)N2C1=O	3	1
Cc1ccccc1CN1CCN(c2nc(C(=O)NCCC(F)(F)F)co2)C1=O	-1	-3
CCN1CCN(C(c2ccc([N+](=O)[O-])cc2)C2Sc3nc(C)nn3C2=O)CC1 (stereo not drawn)	-3	-4
C=CCNC(=S)NNC(=S)N=P(N1CCOCC1)(N1CCOCC1)C(C)(C)C	3	1
O=C(O)c1ccccc1CN1CCCN(c2nc3ccccc3s2)CC1	-2	-7
COC(=O)C1=C(C)N(C)C(=O)NC1c1ccccc1[N+](=O)[O-] (stereo not drawn)	-4	-10
CC(C)CC(C(=O)NCc1ccc(F)cc1)N1C(=O)CSC1c1ccc(F)cc1F (stereo not drawn)	3	9
CC(c1nc(C2CC2)no1)N1CCCC(C2(C)NC(=O)N(C)C2=O)C1 (stereo not drawn)	2	11
CN1CCN(Cn2c(=S)oc3ccccc32)CC1	1	35
CCC(NC1CCN(c2ccc(C(=O)NC3CCCC3)cc2)CC1)c1nc2ccc(C)cc2[nH]1 (stereo not drawn)	14	7
Cc1ccccc1-c1ccc(C(=O)N2CCC3(CC2)CNC(=O)C3)cc1	-1	-3
Cc1nc2c(OCc3cc(Cl)cc(Cl)c3)cccn2c1N(C)CC1CC1	7	-3
Cc1ccc(-n2cc(CNCCc3ncc(C)[nH]3)c(-c3ccc(F)cc3)n2)cc1	4&6	-1&6
COc1ccccc1/C(C)=C/C(=O)N(C)Cc1ccc(F)cc1F	7	3
c1cc(-n2cnnc2)cc(-n2cnc3ccccc32)c1	-11	-20
NS(=O)(=O)c1ccc(CNC(=S)c2ccc3c(c2)OCO3)cc1	9	7
COCCn1cnc2cnc(Nc3ccccc3Cl)cc21	4	1
CCOC(=O)C1(CCOc2ccccc2)CCN(Cc2cccc(C)n2)CC1	5	-1
CCOC(=O)c1c(NC(=O)c2cccc(F)c2)sc(C(=O)Nc2ccc(OC)cc2)c1C	-4	-11
Cc1ccc(C(=O)N2CCN(c3nc(-c4cccc(C(F)(F)F)c4)nc(C)c3C)CC2)cc1[N+](=O)[O-]	-5	-1
O=C(c1ccc(C(F)(F)F)c(F)c1)N1CCC(c2ccc(F)cc2)CC1	-7	-12
O=C(C1CCN(S(=O)(=O)c2ccc(F)c(Cl)c2)CC1)N1CCc2sccc2C1	0	-3
CCOC(=O)CCNC(=O)CCc1ccc(-c2ccc(F)cc2)n1-c1ccc(NC(C)=O)cc1	5	2
Cc1cc(C)cc(Nc2nnc(-c3ccccc3)c(=O)[nH]2)c1	24	23
COc1ccccc1NC(=O)N(Cc1cccc(F)c1)CC1CC(c2ccccc2C)=NO1 (stereo not drawn)	26	27
OC1CCCN(Cn2nc(-c3ccccc3)n(-c3ccc(F)cc3F)c2=S)C1 (stereo not drawn)	-11	-17
CC(CN1CCOCC1)NC(=O)N1CCCc2cc(F)c(F)cc21 (stereo not drawn)	1	0
Cc1cc(-c2cc(C(=O)NCC(=O)NCc3ccco3)c3c(C)noc3n2)c(C)s1	-1	25
O=C1c2ccccc2CC2CC=CCC12 (stereo not drawn)	2	2
CC1(C(=O)NS(=O)(=O)c2ccccc2C(F)(F)F)CCN1C(=O)CCC1CCCC1 (stereo not drawn)	4	4

Rewritten as labelled records: part of the list above
COc1cc2[nH]c(=O)[nH]c2cc1-n1cnnc1
  NPYLR7 ag: 0
  NPYLR7 ag max-min: -5
CSC1CCCC1N(C)Cc1cc(=O)n2[nH]ccc2n1 (stereo not drawn)
  NPYLR7 ag: 0&-7
  NPYLR7 ag max-min: -2&-8

Filtered by structure: the entries above with an NH in an aromatic ring.
SMILES	NPYLR7 ag	NPYLR7 ag max-min
CC(=O)NC(C(=O)Nc1cc(-c2c(F)cccc2F)[nH]n1)C(C)C (stereo not drawn)	20	11
COc1cc2[nH]c(=O)[nH]c2cc1-n1cnnc1	0	-5
CSC1CCCC1N(C)Cc1cc(=O)n2[nH]ccc2n1 (stereo not drawn)	0&-7	-2&-8
CC(C)CCn1c(=O)[nH]c2cc(Cl)ccc2c1=O	-5	-6
CC(=O)c1[nH]c(C)c(C(=O)N2CC[C@@H](c3ccc4c(c3)OCO4)[C@H](O)C2)c1C	15	9
CCc1[nH]c2c(CNC(=O)CCn3c(C)cccc3=O)cc(F)cc2c1C	5	2
O=C(c1cccnc1Nc1cccc(Cl)c1)N1CCC(n2c(=O)[nH]c3ccccc32)CC1	-9	-10
O=C(c1ccccc1)N1CCc2nc(Cc3cccc(C(F)(F)F)c3)[nH]c(=O)c2C1	14	10
Cc1cc(C)cc(NC(=O)CSc2nc3c(c(=O)[nH]2)CN(C(C)C)CC3)c1	-11	-15
Brc1cc2c(cc1CSc1nnc(-c3c[nH]c4ccccc34)o1)OCCO2	12	12
Cc1cc(C)c(C(=O)N2CC3CCCCC3C2)c(=O)[nH]1 (stereo not drawn)	7	2
CCc1nc(C)ncc1C(=O)N1CCCC(c2cc(C(N)=O)n[nH]2)C1 (stereo not drawn)	-2	9
CC(NC(=O)c1cc(-c2ccncc2)nc2ccccc12)c1ncn[nH]1 (stereo not drawn)	16	6
CN1CCC(CNC(=O)c2ccc3c4c([nH]c3c2)CCCC4)C1 (stereo not drawn)	8	8
COc1ccccc1N=Nc1c(-c2ccc([N+](=O)[O-])cc2)[nH]n(-c2nc(-c3ccccc3)cs2)c1=O	-7	-11
CCC(NC1CCN(c2ccc(C(=O)NC3CCCC3)cc2)CC1)c1nc2ccc(C)cc2[nH]1 (stereo not drawn)	14	7
Cc1ccc(-n2cc(CNCCc3ncc(C)[nH]3)c(-c3ccc(F)cc3)n2)cc1	4&6	-1&6
Cc1cc(C)cc(Nc2nnc(-c3ccccc3)c(=O)[nH]2)c1	24	23

This is a subset. The share of hits here may be higher or lower than overall.
